# High-throughput results: PubChem, National Center for Advancing Translational Sciences (NCATS)
# A647 fluor – compound autofluorescence in A647 spectral region. Compound fluorescence, A647 channel (570/671 nm), Tris buffer. max dye-equivalent concentration, M. 59,000 tested, under 10 active. AID 592; active means above 1 µM dye equivalent; inconclusive means 0.1 to 1 µM; inactive means 0.1 µM or less;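 further: values scaled relative to a standard on each plate; highest value over a series up to 38 µM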
#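 Compound fluorescence was measured in 100 mM Tris buffer, pH 8.0, after 15 min at room temperature, using 570 nm excitation and 671 nm emission filters. Signal was normalized to a per-plate Alexa 647 standard curve and expressed as dye-equivalent concentration at each compound concentration.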
# A488 fluor – compound autofluorescence in A488 spectral region; compound autofluorescence, A488 spectral region, dye equivalency; stronger effect = higher value; max dye equivalency, M; actives 0.1% (n = 59,000); AID 591; active = above 10 nM dye equivalent; inconclusive = 1 to 10 nM; inactive = 1 nM or less; about half of its hits are not listed in these tables;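 further: highest value over a series up to 38 µM; compound alone in buffer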
#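 Readout is A488 dye-equivalent concentration, calibrated by a per-plate six-point Alexa 488 series. Compounds in 100 mM Tris buffer pH 8.0 were incubated 15 min at room temperature. Plates were imaged using 480 nm excitation/540 nm emission filters.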
# AID923 – qHTS Assay for Allosteric/Competitive Inhibitors of Caspase-1: Spectroscopic Profiling in AFC Spectral Region. compound fluorescence, AFC spectral region (405/520 nm); almost no hit is shown here. Potency, µM (doses to about 57.5 µM), inactives show at the top dose fluorescence increase, usual class: activators. actives 1.1% (n = 75,000); active means well fitted activation curve with a large enough effect; inconclusive means small, poorly fitted or top-dose-only effect;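 further: potency means the concentration at half of the fitted maximal effect; 0% is about no effect; scaled to a free AFC standard on each plate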
#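 Baseline compound fluorescence (AFC region, 405 nm ex/520 nm em) taken from the intercept of kinetic reads with 50 nM caspase-1 and 5 uM Ac-WEHD-AFC; normalized to an on-plate AFC standard curve; compounds titrated up to 57 uM.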
# Resorufin fluor – compounds fluorescent in resorufin spectral region | Compound fluorescence, resorufin region 547/598 nm, buffer; stronger effect = higher value | max dye-equivalent concentration, M | actives 0.04% (n = 59,000) | AID 588; active = above 10 nM dye equivalent; inconclusive = 1 to 10 nM; inactive = 1 nM or less; a few of its hits are not listed in these tables; further: highest value over a series up to 38 µM
#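 Tris 100 mM pH 8.0; compound added, 15 min RT; CCD imager read, ex 547 nm/em 598 nm; signal normalized to resorufin standard curve (six concentrations per plate) as dye-equivalent concentration.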
# TSHR ag – activates the human thyroid stimulating hormone receptor; P16473; Potency, µM (series often up to 57.1 µM), without a hit: top-dose activation, most hits filed as activators; actives 0.48% (n = 73,000); HEK293-CNG-TSHR cells (CNG channel as cAMP sensor), membrane potential dye, cAMP; active = well fitted activation curve of enough size with the parental cells flat; inconclusive = any curve in the parental cells; inactive = parental cells flat and receptor cells flat or falling; further: potency means the concentration at half of the fitted maximal effect; % of control where 0% means no effect; weak receptor curves with flat parental cells got no call and are not listed
# Target sequence (P16473 whole entry, looked up): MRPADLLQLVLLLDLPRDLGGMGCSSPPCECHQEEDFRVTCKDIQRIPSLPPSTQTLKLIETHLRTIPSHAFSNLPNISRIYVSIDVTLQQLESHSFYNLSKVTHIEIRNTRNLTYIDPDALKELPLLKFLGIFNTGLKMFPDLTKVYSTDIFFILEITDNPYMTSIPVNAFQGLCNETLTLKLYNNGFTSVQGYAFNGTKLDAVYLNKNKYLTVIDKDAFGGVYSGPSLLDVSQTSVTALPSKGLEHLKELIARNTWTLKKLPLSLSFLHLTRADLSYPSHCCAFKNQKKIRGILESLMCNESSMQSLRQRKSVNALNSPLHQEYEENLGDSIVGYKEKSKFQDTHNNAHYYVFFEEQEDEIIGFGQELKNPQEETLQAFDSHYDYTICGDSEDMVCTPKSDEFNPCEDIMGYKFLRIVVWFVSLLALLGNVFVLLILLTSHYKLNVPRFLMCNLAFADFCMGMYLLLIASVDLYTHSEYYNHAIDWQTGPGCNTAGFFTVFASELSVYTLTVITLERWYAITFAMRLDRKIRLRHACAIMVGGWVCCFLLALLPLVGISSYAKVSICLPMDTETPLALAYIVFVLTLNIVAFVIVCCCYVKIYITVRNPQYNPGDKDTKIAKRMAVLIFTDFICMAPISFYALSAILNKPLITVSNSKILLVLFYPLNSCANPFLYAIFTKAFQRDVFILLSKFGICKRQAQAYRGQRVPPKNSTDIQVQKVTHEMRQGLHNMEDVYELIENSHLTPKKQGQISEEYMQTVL
#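 cAMP rise detected as CNG-channel membrane depolarization by fluorescent dye (emission 590 nm), 30 min after compound, following 60 min dye loading containing 100 uM RO 20-1724 at room temperature. Cells: TSHR/CNG HEK 293, with parental CNG HEK 293 as control.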
# * hit, by the source's call; i = inactive; ? = inconclusive; / = not tested or not shown; [ ] = dose if it differs, or a comment.
# Results follow in this order: A647 fluor, A488 fluor, AID923, Resorufin fluor, TSHR ag
> O=C(CCNc1ccccc1)c1ccc2c(c1)OCO2
    4.7e-09, i, -0.8%, i, ?
> Cc1ccc(S(=O)(=O)NC(CC(=O)N2CCc3ccccc32)c2ccco2)cc1 (stereo not drawn)
    4.3e-08, i, -0.9%, i, 30%
> O=C(CSc1ccc2nnc(-c3ccncc3)n2n1)Nc1ccc2c(c1)OCO2
    /, /, -2.2%, /, -4%
> Cc1cc(C)c2c(c1)-c1cc(C)nn1C(c1ccc3c(c1)OCO3)N2 (stereo not drawn)
    4.2e-09, i, 4.1%, i, -14%
> CCOc1cc(CC(=O)N[C@@H](CC(C)C)c2ccccc2N2CCCCC2)ccc1C(=O)O
    1e-09, i, -3.3%[25.7 µM], i, 29%[25.6 µM]
> COC(=O)N1CCC2(CCCN(Cc3ccc(C#N)cc3)C2)CC1
    1e-09, i, 1.8%, i, 10%
> Cc1ccc(Nc2cc(C)nc3ncnn23)c(Cl)c1
    /, /, -4.6%, /, 12%
> CCOC(=O)C1CCCN(c2c(N3CCC(N4CCCCC4)CC3)c(=O)c2=O)C1 (stereo not drawn)
    /, /, 2.9%, /, 0%
> Cc1ccc(-c2ccc(SCC(=O)Nc3nonc3C)nn2)cc1
    4.7e-09, i, -3.6%, i, 29%
> CCn1c(SCC(N)=O)nnc1-c1cc2c(C)nn(-c3ccccc3)c2s1
    8.6e-09, i, 0.8%, i, 15%
> CCCC(=O)n1nc(-c2ccc(OC)cc2)nc1N
    3.5e-08, i, -2.0%, i, 5%
> CCCOc1ccc(/C=c2\sc3nc(-c4ccco4)nn3c2=O)cc1OCC
    1.5e-08, ?, -2.6%, i, 0%[11.4 µM]
> Cc1nc2cc(S(=O)(=O)N(C)C)ccc2n1-c1ccccc1
    3.1e-09, i, -1.1%, i, 1%
> CCN[C@@H]1C[C@H](C)S(=O)(=O)c2sc(S(N)(=O)=O)cc21
    2.1e-08, i, -2.9%[25.7 µM], i, ?
> CN1CCN(CC(=O)C23CC4CC(CC(C4)C2)C3)CC1
    1e-09, i, 0.9%, i, ?
> Cc1cc(C)nc(SCNC(=O)c2ccc(F)cc2)n1
    7.3e-09, i, -1.5%, i, -6%
> COC(=O)CNC(=O)c1c(-c2ccccc2Cl)noc1C
    1.1e-09, i, 2.9%, i, -3%
> CCC(C)NC(=O)CCS(=O)(=O)c1ccc(Br)s1 (stereo not drawn)
    3.4e-09, i, -1.6%, i, -4%
> Cc1ccc(NC(=O)N2CCC(NC(=O)c3ccccc3C)CC2)cc1
    3.9e-08, i, 2.9%, i, 9%
> Cc1nnc(N2CCN(Cc3ccccc3)CC2)[nH]c1=O
    1e-09, i, 1.4%, i, -9%
> CN1C(=O)CC2(CC(=O)N(Cc3ccccc3)C2)C1=O (stereo not drawn)
    3.3e-08, i, 0.7%, i, -1%
> Cc1onc(-c2ccccc2)c1C(=O)Nc1c(C)n(C)n(-c2ccccc2)c1=O
    /, /, 1.0%, /, 10%
> CC(=NC1CCCCC1)C1=C(O)c2ccccc2C1=O
    /, /, 0.6%, /, 19%
> c1cc2c(cc1Oc1nc(N3CCOCC3)nc(N3CCOCC3)n1)OCO2
    3.9e-08, i, -0.4%, i, 12%
> Cc1ccc(N2CCCn3c2nc2c3c(=O)n(CCN3CCOCC3)c(=O)n2C)cc1
    2.2e-08, i, -0.7%, i, -12%
> c1ccc(C(c2ccccc2)N2CC3(CCNCC3)C2)cc1
    1.6e-08, i, 2.2%, i, -3%
> COc1ccc(C2CC(c3ccc(Cl)c(Cl)c3)Nc3nc(N)nn32)cc1 (stereo not drawn)
    /, /, -1.1%, /, 1%
> Clc1cc2c(c(CSC3=NCN(CC4CC4)CN3)c1)OCOC2
    4e-08, i, -1.1%[11.5 µM], i, /
> CCc1nc(SCC(=O)Nc2cccc(C(F)(F)F)c2)c2c(=O)n(C)c(=O)n(C)c2n1
    /, /, -0.6%, /, -11%
> O=C(CCCc1c[nH]c2ccccc12)N1CCCCCC1
    1e-09, i, -0.1%, i, 4%

# Compounds shown so far that contain an NH in an aromatic ring:
# Results follow in this order: A647 fluor, A488 fluor, AID923, Resorufin fluor, TSHR ag
> Cc1nnc(N2CCN(Cc3ccccc3)CC2)[nH]c1=O
    1e-09, i, 1.4%, i, -9%
> O=C(CCCc1c[nH]c2ccccc12)N1CCCCCC1
    1e-09, i, -0.1%, i, 4%

# Continuation:
# Results follow in this order: A647 fluor, A488 fluor, AID923, Resorufin fluor, TSHR ag
> O=C(CSc1ncnc2c1oc1ccccc12)N1CCc2ccccc2C1
    2.5e-08, i, 1.8%, i, 9%
> Cn1c(=O)c2c(ncn2CC(=O)Nc2nc(-c3ccccc3Cl)cs2)n(C)c1=O
    1.9e-08, i, -3.0%, i, 23%
> CS(=O)(=O)N1CCN(c2ccccc2NC(=O)Cc2ccc(Cl)cc2)CC1
    1e-09, i, -2.0%, i, 21%
> COc1ccc(CSc2nnnn2Cc2ccccc2)cc1OC
    /, /, 0.8%, /, ?
> Cn1c(SCC2CCCCC2)nnc1-c1ccncc1
    3.8e-08, i, -0.8%, i, 3%
> O=C(Oc1cccnc1)c1cc2ccccc2oc1=O
    3e-08, i, 0.7%, i, 4%
> O=C(CSc1nc(O)cc(=O)n1-c1ccccc1)NCc1ccccc1
    /, /, 0.5%, /, -1%
> Cc1cccc(Cl)c1NC[C@H](O)CN1CCN(C)CC1
    6.1e-08, i, -1.0%[11.5 µM], i, 4%[11.4 µM]
> O=C(c1cn(CC(=O)N2CCCCC2)c2ccccc12)C1CC1
    1.4e-08, i, -0.9%, i, 6%
> Cc1ccc(N(C(C)C(=O)N2CCCCC2)S(C)(=O)=O)cc1C (stereo not drawn)
    1.9e-09, i, 1.1%, i, ?
> CCn1c(C)c(C(C)=O)c(N2CCN(c3ccccn3)CC2)nc1=S
    1e-09, i, -0.6%, i, -6%
> CCc1cc(/C(Cc2ccc3ccccc3n2)=N\O)c(O)cc1O
    1.3e-08, i, 1.5%, i, -9%
> C[C@H](CCC(=O)NN)[C@@H]1CC[C@@H]2[C@H]3CC[C@H]4C[C@@H](O)CC[C@@]4(C)[C@@H]3CC[C@]21C
    1e-09, i, 0.2%[11.5 µM], i, -3%[11.4 µM]
> C[C@@H](Cc1ccccc1)Nc1ncnc2c1ncn2[C@@H]1O[C@@H](CO)[C@H](O)[C@@H]1O
    4.7e-08, i, -5.7%, i, ?
> CCN(CC)C(=O)CSc1nc2ncc(Cl)cc2[nH]1
    1.2e-08, i, 1.4%, i, 2%
> O=C(COC(=O)c1cccc(C(=O)OCC(=O)NC2CCCCC2)n1)NC1CCCCC1
    3.4e-08, i, -0.7%, i, 0%
> CC(C)C[C@H](NC(=O)N1CCCCCC1)C(=O)N[C@H](Cc1cn(C)c2ccccc12)C(=O)N[C@H](Cc1ccccn1)C(=O)O
    /, /, -2.0%, /, 3%
> Cc1sc2ncn3cnnc3c2c1C
    1.4e-08, i, -1.6%, i, 3%
> COC(=O)C1=C(N)Oc2cc(C)n(Cc3cccnc3)c(=O)c2C1c1ccc(OC)c(OC)c1 (stereo not drawn)
    5.1e-09, i, 0.4%, i, 4%
> Clc1ccc(-c2nnc3sc(-c4ccccn4)nn23)cc1
    1.7e-08, i, 0.5%, i, 6%
> CCOc1cccc(-c2nc(C(N)=O)c3[nH]c(=O)n(-c4cccc(Cl)c4)c3n2)c1O
    /, /, 0.2%, /, 12%
> FC(F)(F)c1nnc2sc(-c3ccccn3)nn12
    2e-09, i, -0.9%, i, 5%
> CCOc1ccccc1NC(=O)CSc1nc2c(c(=O)n1C)SC(C)C2 (stereo not drawn)
    /, /, -5.7%, /, ?
> CC12CCC3(CO)COC(c4ccccc4O1)C2C3 (stereo not drawn)
    1e-09, i, -1.2%, i, -1%
> C=CCn1c(=O)c2ccccc2n2c(SC(C)C(=O)Nc3nc(-c4ccccc4)cs3)nnc12 (stereo not drawn)
    6.2e-09, i, -1.8%, i, 10%
> Cc1c(NC(=O)CN2C(=O)c3ccccc3C2=O)c(=O)n(-c2ccccc2)n1C
    /, /, 1.2%, /, 0%
> Cc1nn(-c2ccc(C(=O)O)cc2)c(N)c1-c1ccccc1
    3e-08, i, -1.7%, i, -1%
> Cc1cccc(C)c1NC(=O)N1CCC(n2cnc3ccccc32)CC1
    7.3e-09, i, -1.1%, i, 2%
> CCCS(=O)(=O)c1nnnn1-c1cccc(OC)c1
    3.8e-08, i, 0.0%, i, 12%
> Cc1cncn1CCc1nc2c3ccccc3nc(=S)n2[nH]1
    1.9e-08, i, 0.1%, i, ?
> CCc1sc(C(=O)N2CCN(S(C)(=O)=O)CC2)cc1Br
    2.9e-08, i, 1.8%, i, 6%
> CN(C)C(CNC(=O)c1cccs1)c1cccnc1 (stereo not drawn)
    /, /, 0.3%, /, 3%
> CCCN1C2=NS(=O)(=O)CCN2c2ccccc21
    3.7e-08, i, -1.7%, i, 2%
> COc1ccccc1C(=O)Nc1ccccn1
    3.7e-08, i, 0.3%, i, 2%
> CCCc1nc(SCC(=O)Nc2cc(Cl)ccc2OC)c2c(=O)n(C)c(=O)n(C)c2n1
    /, /, 1.5%, /, 3%
> Cc1ccc(S(=O)(=O)Nc2c(C)n(C)n(-c3ccccc3)c2=O)cc1C(=O)NCc1ccccn1
    4.5e-08, i, -1.1%, i, -1%
> CCOCC(=O)Nc1cccc(C(=O)OCC)c1
    1e-09, i, -4.9%, i, /
> O=C(CCN1CCOCC1)Nc1ccc2c(c1)CCC2
    9.1e-09, i, -0.8%, i, 3%
> COc1ccc(N2C(=O)C(Cl)=C(N3CCCC3)C2=O)cc1
    2.9e-09, i, 2.0%, i, 2%
> O=C1CC(c2cccnc2)c2cc3c(cc2N1)OCO3 (stereo not drawn)
    /, /, 0.3%, /, 1%
> Cc1ccccc1NC(=O)c1cnc2ccccn2c1=O
    /, /, 7.6%, /, -2%
> CCOC(=O)N1CCN(c2ccc(C(=O)c3cccc(F)c3)cc2)CC1
    1.3e-09, i, 18%, i, ?
> CCCCCCn1cnc2c(c1=O)c1nc3ccccc3nc1n2Cc1cccs1
    1e-09, i, 0.4%, i, 6%
> CCOC(=O)N1CCN(C(=O)Cn2ncc3ccccc32)CC1
    /, /, 0.0%, /, ?
> Cc1c(N=CC=Nc2c(C)n(C)n(-c3ccccc3)c2=O)c(=O)n(-c2ccccc2)n1C
    /, /, -1.2%, /, -7%[11.4 µM]
> CC(=O)Nc1ccc(C(=O)CSc2nc3ccccc3n2CC(=O)N2CCCC2)cc1
    1.4e-08, i, 1.7%, i, 0%
> CC(=O)Nc1nc(SCCCc2ccccc2)n[nH]1
    1.2e-08, i, 1.0%, i, 5%
> Cc1occc1-c1nnc(SCC(=O)Nc2ccc3c(c2)OCO3)n1CC1CCCO1 (stereo not drawn)
    1.3e-08, i, -0.5%, i, 5%
> CCOc1cc(-c2noc(-c3cccnc3)n2)ccc1OC
    1e-09, i, 1.0%, i, -3%
> CCOc1ccc(Cc2nc(-c3nonc3N)no2)cc1OCC
    1.8e-09, i, 0.1%, i, 3%
> O=C(NC1CCCCC1)c1noc2c1CCCCC2
    3.5e-09, i, -1.2%, i, 5%
> Cn1c(CCNC(=O)OC(C)(C)C)n[nH]c1=S
    1e-09, i, 0.3%, i, -3%
> CCCS(=O)(=O)N1CCCC(C(=O)NCCN2CCC(Cc3ccccc3)CC2)C1 (stereo not drawn)
    1e-09, i, 0.7%, i, 8%
> C/C(Cl)=C/CCl
    /, /, 2.3%, /, -2%
> O=C(Cc1ccccc1)N1CCC(c2nc(-c3ccc(F)cc3)no2)CC1
    2.6e-08, i, -1.0%, i, ?

# Only part of the results is shown; the hit share may differ from the screen's.
